# Compound activity: PubChem, National Center for Advancing Translational Sciences (NCATS)
# PINK1 modulator: A Quantitative High throughput Screen to Identify Chemical Modulators of PINK1 Expression; PINK1 immunofluorescence, high-content cytometry, 24 h; Potency, µM (series often up to 76.6 µM), without a hit: at the top dose activation (PINK1 increase), most hits filed as activators; hit rate 0.2% among 410,000; active = well fitted activation curve with a large enough effect; inconclusive = small, poorly fitted or top-dose-only effect; inactive = flat fitted curve, though single readings scatter; cell line not stated here;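 note: potency is the fitted concentration of half-maximal effect; % of control where 0% means no effect; nearly all actives have a fitted effect of over 65% in size; a mitochondrial uncoupler was the plate control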
#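 Stable cell line treated 24 h with compounds at 5 concentrations (CCCP controls), then fixed and immunostained for PINK1 plus nuclear and cell stains; PINK1 immunofluorescence quantified by laser-scanning microplate cytometry.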
# TRPML1 inh: qHTS for Inhibitors of the Human Mucolipin Transient Receptor Potential 1 (TRPML1); activity change, negative = inhibition, % (no concentration beside the values); TRPML1-inducible cells, Ca2+ dye fluorescence, FDSS; active compounds read low; inhibition of EC80 agonist-evoked calcium signal; hit rate 0.02% among 390,000; AID 624415, 2012; Mucolipin-1 (Homo sapiens), Q9GZU1; in the data active means activity change below about -50%; inconclusive means about -30% to -50%; inactive means above about -30%;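 note: stimulus is agonist 54-4 at its EC80 concentration; % is set by controls: 0 for no effect and ±100 for the full control effect; compound concentration not given in the record; the text of the record puts the active cut at -80%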
# Target sequence (Q9GZU1 whole entry, looked up): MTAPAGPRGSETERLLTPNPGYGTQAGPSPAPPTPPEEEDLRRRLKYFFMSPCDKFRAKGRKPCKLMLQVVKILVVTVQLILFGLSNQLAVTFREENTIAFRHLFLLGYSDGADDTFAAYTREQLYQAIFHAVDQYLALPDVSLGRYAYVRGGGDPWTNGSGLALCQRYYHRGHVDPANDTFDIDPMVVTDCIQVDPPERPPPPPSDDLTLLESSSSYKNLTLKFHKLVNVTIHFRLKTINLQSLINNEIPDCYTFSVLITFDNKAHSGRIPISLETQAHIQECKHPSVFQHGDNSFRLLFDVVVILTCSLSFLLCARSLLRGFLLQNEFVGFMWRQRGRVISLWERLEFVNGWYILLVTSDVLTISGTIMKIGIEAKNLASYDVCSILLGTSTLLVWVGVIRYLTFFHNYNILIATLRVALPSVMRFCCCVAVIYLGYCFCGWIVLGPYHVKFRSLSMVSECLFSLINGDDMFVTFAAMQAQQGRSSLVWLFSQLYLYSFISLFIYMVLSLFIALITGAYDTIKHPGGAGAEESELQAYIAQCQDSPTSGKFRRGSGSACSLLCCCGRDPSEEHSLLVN
#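 Calcium fluorescence in TRPML1-DL cells induced overnight with Tet: a 110 s read after compound pin addition, then a 110 s antagonist read after challenge with 54-4 at 4 uM final (EC80).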
# Menin-MLL FL inh: qHTS Assay for Inhibitors Targeting the Menin-MLL Interaction in MLL Related Leukemias: Competition With Fluorescein Labeled MLL-derived Peptide | Fluorescence polarization, fluorescein-MLL peptide displacement from menin | FP activity change, % at 61.4 µM | 290,000 tested, under 10 active | AID 1766, 2009; inconclusive = falling polarisation curve, or a change in total fluorescence; inactive = total fluorescence flat and polarisation flat or rising; no compound was filed as active; the % refers to the polarisation; negative = inhibition;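 note: % of control where 0% means no effect; inhibitors lower the polarisation; unlabelled MLL peptide was the positive control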
# TRPV1 potentiator: HTS Assay for Compounds that Act as Potentiators of the Vanilloid Receptor 1; Transient receptor potential cation channel subfamily V member 1 (Homo sapiens), Q8NER1; TRPV1-expressing cells, Fluo-8 calcium influx, capsaicin EC20 potentiation; host cell line not named in the record; control for the full effect not named in the record; potentiation, % at 8.33 µM; hit rate 0.02% among 320,000; AID 540277, 2011; active means potentiation above 80%; inconclusive means 30% to 80%; inactive means below 30%; note: 0% is about no effect
#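 Fluo-8 calcium influx in TRPV1-expressing cells, kinetic read (ex 480/em 520 nm). Compound added and read 3 min for agonist activity, followed by capsaicin at EC20 final and 2 min further read for enhancement.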
# ClpP mod: qHTS Assay for Activators of ClpP | purified B. subtilis ClpP, FRET peptide cleavage, 20 min | Potency, µM (top dose mostly 57.5 µM), inactives show top-dose activity change, negative = active | AID 651965, 2013 | hit rate 1.9% among 340,000 | ATP-dependent Clp protease proteolytic subunit (Bacillus subtilis (strain 168)), P80244; active = well fitted falling curve with a large enough effect; inconclusive = small, poorly fitted or top-dose-only effect; inactive = no such curve, though single readings can be large or run the other way; note: potency is the fitted concentration of half-maximal effect; the source files actives as falling curves though it sought activators and does not explain the sign; nearly all actives have a fitted effect of over 65% in size; many hits overshoot -100%
# Target sequence (P80244 whole entry, looked up): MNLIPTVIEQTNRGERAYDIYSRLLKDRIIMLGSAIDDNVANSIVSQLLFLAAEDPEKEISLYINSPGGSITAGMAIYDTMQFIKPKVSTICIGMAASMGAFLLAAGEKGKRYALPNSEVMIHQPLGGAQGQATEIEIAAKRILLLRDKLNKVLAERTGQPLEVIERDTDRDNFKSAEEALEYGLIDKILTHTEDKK
#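 Purified B. subtilis ClpP, 10 microg/mL final in Tris/HCl pH8 with KCl, BSA, glycerol and Tween-20, cleaved an Abz/nitrotyrosine-quenched decapeptide. Fluorescence (ex 320, em 430) was read at 0 and 20 min at room temperature. Delta was normalized to 5.8 microM ADEP and DMSO/no-enzyme controls.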
# Sfp PPTase inh: qHTS Assay for Inhibitors of Bacillus subtilis Sfp phosphopantetheinyl transferase (PPTase) | 4'-phosphopantetheinyl transferase ffp (Bacillus subtilis), Q9F4F7 | Biochemical Sfp PPTase activity, qHTS | Potency, µM, without a hit: max response, negative = inhibition, most hits filed as inhibitors | hit rate 3.5% among 310,000 | AID 1490, 2009; active = well fitted inhibition curve with a large enough effect; inconclusive = small, poorly fitted or top-dose-only effect, or another doubt; inactive = no such curve, though single readings can be large or run the other way;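 note: the enzyme is Sfp with the accession as filed and its product quenches rhodamine fluorescence; potency is the fitted concentration of half-maximal effect; 0% = enzyme reaction without inhibitor and -100% = no enzyme wells; top concentration of the series not given in the record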
#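 Fluorescence-quenching assay with 15 nM Sfp, 5 uM rhodamine-CoA and 12.5 uM BHQ-2-labelled ybbR peptide in pH 7.6 Hepes/MgCl2 buffer. Enzyme was pre-incubated with compound for 15 min at room temperature. Rate was taken from the 30-min fluorescence change (525/598 nm).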
# TRPML1 agonist: qHTS for Agonists of the Human Mucolipin Transient Receptor Potential 1 (TRPML1); TRPML1-expressing cells, Ca2+ dye fluorescence, FDSS; host cell line not named in the record; reference of the full effect not given here; activation, % (no concentration beside the values); hit rate 0.12% among 410,000; AID 624414, 2012; in the data active = activation above about 50%; inconclusive = about 30% to 50%; inactive = below about 30%; note: 0% is about no effect; the text of the record puts the active cut at 80%
#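 Tetracycline-induced TRPML1-DL cells are seeded and incubated overnight before loading with a no-wash Ca2+ dye and quencher. Agonist activity is taken from the 110 s fluorescence read following compound pin-transfer on an FDSS, before EC80 54-4 challenge.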
# The depositor's hits bear a star; u = inconclusive; x = not tested or not shown; & = joins results of further samples; [ ] = dose if it differs, or a comment.
SMILES,PINK1 modulator,TRPML1 inh,Menin-MLL FL inh,TRPV1 potentiator,ClpP mod,Sfp PPTase inh,TRPML1 agonist
CCC(NC(=O)OC(C)(C)C)C(=O)Oc1ccc2c3c(c(=O)oc2c1)CCC3 (configuration not stated),-0.9%,9,4.1,-3,215%,9%,1.4
CCc1cc2c(CN(C)Cc3ccccc3F)cc(=O)oc2cc1O,26%,6,0.1,-7,x,14%,3.0
Cc1ccc(NC(=O)/C=C/c2cccc(C(F)(F)F)c2)cc1,9.7%,3,-1.0,-3,2.1%,13%,-0.1
O=C(C[n+]1cc(Br)cc(Br)c1)c1ccc(-c2ccccc2)cc1,1.1%,10,0.8,3,-3.2%,-4%,0.8
Cc1nn(C)c2c1c(C(F)(F)F)cc(=O)n2C(C)C(=O)NCc1ccccc1 (configuration not stated),0.0%,-10,x,x,4.1%,x,1.4
Cc1ccc(S(=O)(=O)N[C@@H](C)C(=O)N2CCC(C(=O)N[C@@H](Cc3ccccc3)C(=O)O)CC2)cc1,-1.8%,-19,-7.8,-3,-1.1%,0%,0.0
COc1cc(NC(=O)COC(=O)CNC(=O)c2ccc(C)cc2)c(C)cc1[N+](=O)[O-],0.9%,39,-3.8,0,0.3%,13%,-0.7
O=C(C[C@H]1C/C=C\CC[C@H](Cc2ccc(F)cc2)C(=O)OC[C@H]2CCCN2C1=O)NCCO,1.2%,-6,x,x,-3.7%,x,-0.1
Cc1ccc(S(=O)(=O)CCC(=O)Nc2ccc(Br)cc2C)cc1,1.2%,-11,x,x,-2.8%,x,-0.2
O=C(NCC1CCN(Cc2cccc(Cl)c2)CC1)Nc1ccccc1Cl,3.5%,0,-0.5,-2,x,14%,0.9
COc1ccc(/C=N\NC(=O)COc2ccccc2Cl)cc1Cn1nc(C)cc1C,5.7%,3,-2.0,9,-0.2%,18%,-1.0
O=C(c1c(Cl)cccc1Cl)N1CCN(c2ccccn2)CC1,5.1%[38.3 µM],-8,0.6,-5,32µM*,23%,-0.2
Cc1ccc(S(=O)(=O)/N=C/N(C)C)cc1,1.1%,35,x,5,0.3%,28%,0.5
CC1=CC(C)(C)NC(=S)N1c1ccc(C)cc1C,2.0%,35,0.1,-2,-3.4%,22%,0.9
O=C(CN1C(=O)NC2(CCCc3ccccc32)C1=O)N1CCN(C(=O)c2ccco2)CC1 (configuration not stated),-1.2%,5,-1.0,-28,-25%,6%,-0.8
O=C(O)CSCC(=O)NCc1csc2ccc(Cl)cc12,0.4%,9,5.5,-38,0.2%,0%,-0.5
COc1cc(S(=O)(=O)NC2CCCC2)ccc1-n1cnnn1,3.7%,-11,x,4,x,16%,0.4
OCC1CCCN(Cc2ccc(-c3ccccc3)cc2)C1 (configuration not stated),2.2%[38.3 µM],21,0.1,1,-1.8%,-10%,1.2
O=C(N/N=C/c1cccc(Br)c1)C1CC(=O)N(c2ccccc2)C1 (configuration not stated),-0.6%,5,1.4,1,x,10%,0.7
CCOC(=O)C1(Cc2ccccc2)CCN(Cc2cccc3c2OCO3)CC1,4.8%,71,-4.7,-3,x,17%,0.7
CN(c1ccccc1)S(=O)(=O)c1ccc(Cl)c(C(=O)Nc2ccc(N3CCOCC3)cc2)c1,0.2%,9,-0.1,16,x,16%,0.3
COc1ccc(-c2[nH]ncc2CNCCc2ncccc2C)cc1F,-0.2%,-10,1.0,-5,x,22%,0.6
O=S(=O)(Nc1cc(Br)cc2cccnc12)c1ccccc1,4.0%,1,x,10,x,x,2.5
CC1(c2ccc3noc(-c4ccc(Cl)cc4)c3c2)OCCO1,-2.7%,11,6.5,-14,-3.4%,u,1.7
CCCCc1nnc(NC(=O)CSc2nc(N)cc(=O)[nH]2)s1,1.7%,2,0.5,u,x,u,0.4
CC(=O)N[C@H]1[C@H]([C@H](O)[C@H](O)CO)O[C@](O)(C(=O)O)C[C@@H]1O,-0.5%,-10,x,x,-2.5%,x,0.4
Cc1cc(=O)oc2cc(NC(=O)c3cccc(S(=O)(=O)N(C)C)c3)ccc12,13%,-21,4.1,4,x,23%,-0.1
CCOc1ccc(-n2c(SCc3ccccc3)nc3c([nH]c4ccccc43)c2=O)cc1,-3.7%,48,x,x,-13%,x,0.1
Cc1cc2ccc(C)c(C)c2nc1SCC#N,1.8%,-5,3.3,-10,u,-9%,-0.2
CCOC(=O)[C@]12CCC=C1N(Cc1ccc(Cl)cc1Cl)C(=O)[C@H](CC(=O)NCc1cccs1)C2,-0.4%,x,x,x,1.1%,x,0.6
CC(Nc1cc(N2CCN(C(=O)C(C)(C)C)CC2)ccc1[N+](=O)[O-])c1ccccc1 (configuration not stated),0.3%,47,-0.5,-12,0.7%,5%,0.6
O=C(COC(=O)C1CCC1)NCCc1ccc(Cl)cc1Cl,-0.8%,6,x,5,1.1%,-8%,-0.2
COCC(C)n1c(C)cc(C(=O)CSc2cc(C)c3ccccc3n2)c1C (configuration not stated),1.0%,-7,1.7,4,1.9%,-3%,1.2
CN(Cc1ccccc1)C(=O)c1ccc(NC(=O)Cc2ccc(NC(=O)C3CCN(C(=O)C4CCCCC4)CC3)cc2)cc1,8.9%,-13,x,x,0.7%,x,0.5
O=C(Nc1ccccc1N1CCOCC1)c1cccc(S(=O)(=O)N2CCOCC2)c1,0.5%,-28,x,-2,-1.0%,x,3.0
O=C(Nc1cccc(F)c1)C1CCCN1S(=O)(=O)c1cccc2cccnc12 (configuration not stated),3.0%,22,-0.9,3,-1.3%,28%,-0.7
O=C(NCCc1csc(-c2ccccc2)n1)c1ccccc1F,1.9%,-3,1.8,u,-4.3%,12%,0.2
Cc1ccc(CN(Cc2ccccc2)C(=S)Nc2ccccc2C)o1,0.2%,4,-0.5,3,x,13%,2.4
O=C(OCN1C(=O)c2ccccc2C1=O)c1ccccc1,-1.7%,3,2.0,7,1.6%,-5%,3.5
CC1(C)S[C@@H]2[C@H](NC(=O)COc3ccccc3)C(=O)N2C1C(=O)OCC1CCCCC1 (some centres not stated),1.4%,-7,x,x,1.5%&-0.4%,x,1.2&0.0
COc1cc(C(=O)Nc2ccc(N(C)C)cc2)cc(OC)c1OC,11µM*,-5,3.3,-13,1.1%,2%,-0.1
CCc1ccc(C(=O)Nc2ccc(S(=O)(=O)Nc3nc(C)cc(C)n3)cc2)o1,-1.9%,-9,-0.5,5,-3.0%,19%,0.6
COc1ccc(S(=O)(=O)N2CCOCC2)cc1NC(=O)c1ccc2c(c1)OCO2,-0.7%,16,x,-15,-2.9%,x,0.2
COCc1c(C(=O)N/N=C/c2ccc(C)o2)nnn1-c1nonc1N,1.7%,9,-0.2,27,x,9%,-0.7
Cc1cc(NC(=O)CCC(=O)N(CC(=O)NC2CCCC2)Cc2ccco2)no1,0.2%,-13,-2.6,5,-0.6%,21%,-0.3

# Given tab-delimited: three of the compounds above
Compound	PINK1 modulator	TRPML1 inh	Menin-MLL FL inh	TRPV1 potentiator	ClpP mod	Sfp PPTase inh	TRPML1 agonist
CC1(C)S[C@@H]2[C@H](NC(=O)COc3ccccc3)C(=O)N2C1C(=O)OCC1CCCCC1 (some centres not stated)	1.4%	-7	x	x	1.5%&-0.4%	x	1.2&0.0
COc1cc(C(=O)Nc2ccc(N(C)C)cc2)cc(OC)c1OC	11µM*	-5	3.3	-13	1.1%	2%	-0.1
CCc1ccc(C(=O)Nc2ccc(S(=O)(=O)Nc3nc(C)cc(C)n3)cc2)o1	-1.9%	-9	-0.5	5	-3.0%	19%	0.6

# Additional compounds
SMILES,PINK1 modulator,TRPML1 inh,Menin-MLL FL inh,TRPV1 potentiator,ClpP mod,Sfp PPTase inh,TRPML1 agonist
NC(=O)C1CCN(C(=O)CC2(CC(=O)O)CCCC2)CC1,1.3%,-3,0.0,-6,x,-3%,0.6
O=C(OCCCN=C1NS(=O)(=O)c2ccccc21)c1ccc(F)cc1,0.3%[38.3 µM],-10,-1.8,-43,0.0%,7%,0.1
CC(=O)NNc1cc(C)nc(NS(=O)(=O)c2ccc(C)cc2)n1,1.0%,-13,-1.2,-3,x,2%,-0.1
Cc1ccc(S(=O)(=O)N2CCN(CC(O)COc3ccccc3)CC2)cc1 (configuration not stated),3.8%,2,-8.2,-17,x,0%,-0.7
CN(CC(=O)N1CCc2ccccc2C1)S(=O)(=O)c1ccc2c(c1)c(=O)n(C)c(=O)n2C,-1.0%,-9,3.3,u,-9.0%,-1%,-0.9
COc1ccc(OC)c(N2C(=O)C(Cl)=C(N3CCOCC3)C2=O)c1,1.5%,9,-2.7,2,1.0%,4%,-0.6
Cc1ncc([N+](=O)[O-])n1CC(=O)NCc1ccccc1,14%[38.3 µM],-2,5.1,-15,0.4%,9%,-0.5
CCOC(=O)C1=C(C)N(CC(C)C)C(=O)/C1=C\c1cccs1,u,-2,-1.4,-19,x,-16%,1.4
O=C1CCCN1c1cc(Cl)ccc1Cl,0.6%[38.3 µM],4,-1.8,-5,1.5%,-6%,0.0
OCCn1cnc2c(SCc3ccccc3)ncnc21,0.0%,45,x,x,x,x,1.4
COc1ccc(NC(=O)/C(C#N)=C/c2ccc[nH]2)c(OC)c1,26%,5,x,-2,0.6%,-1%,1.3
Cc1noc(C)c1C(=O)NCc1ccccc1F,1.9%,13,1.6,-2,-3.2%,27%,-0.1
CCN(CC)C(=O)c1ccc2c(c1)N(Cc1ccccc1)C(=O)CS2=O (configuration not stated),0.1%,6,5.9,16,-0.1%,3%,0.1
O=C(CCc1ccc(S(=O)(=O)NC2CCCCC2)cc1)NCc1ccc(Cl)cc1,6.1%,6,8.6,0,1.5%,21%,0.6

# Shown as a hit in PINK1 modulator, of those listed so far:
compound | PINK1 modulator | TRPML1 inh | Menin-MLL FL inh | Sfp PPTase inh
COc1cc(C(=O)Nc2ccc(N(C)C)cc2)cc(OC)c1OC | 11µM* | -5 | 3.3 | 2%
